# AF4-AF9 inh: inhibitors of AF4 peptide binding to AF9, primary screen, biochemical, AlphaScreen, biotin-AF4 peptide, FLAG-AF9, single point; AID 651704, 2012; Protein AF-9 (Homo sapiens), P42568; 350,000 compounds, 0.47% hits; inhibition, % at 10 µM;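 active = every replicate reaching a set inhibition limit, whatever the replicate mean, cut at about 25% in these data; inconclusive = mean inhibition reaches that limit but some replicates miss it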;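 also: 0% = plate neutral control median and 100% = total signal loss; the record names both 10 and 1 µM as test concentration; the first replicate is given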
# FGF22 binding: binders of human FGF22 protein, primary screen, FGF22 synaptogenesis inhibitor project, biophysical, thermal shift, single point; recombinant FGF22 thermal shift, SYPRO orange fluorescence; percent of sucrose octasulfate shift, DMSO zero; calls only at 9.99 µM; 340,000 compounds, 1.5% hits;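 active = melting point raised past a set limit in the mean and every replicate; inconclusive = no clear call; three in four hits are not shown here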
# Target sequence (Q9HCT0 whole entry, looked up): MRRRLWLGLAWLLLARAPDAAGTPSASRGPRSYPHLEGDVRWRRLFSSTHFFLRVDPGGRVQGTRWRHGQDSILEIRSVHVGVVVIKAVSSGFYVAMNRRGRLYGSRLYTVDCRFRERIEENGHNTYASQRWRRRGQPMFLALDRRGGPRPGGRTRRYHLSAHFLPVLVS
# rRNA inh HTS: reduced GFP signal of wild-type E. coli, primary screen, bacterial rRNA inhibitor project, GFP/RFP fluorescence, OD600, single point; AID 720706, 2013; E. coli WT GFP vs humanized-ribosome RFP mutants, 24 h; hits give low values; DMSO median 0, no signal -100; GFP signal change (wild-type ribosome), % (concentration not given with the values); 350,000 compounds, 1.6% hits;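 active = significant combined selectivity score with lowered wild-type GFP, culture density cut under 30%, mutant RFP and density less affected; inactive = any of these conditions unmet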; also: one replicate is shown; some compounds called inactive have numbers as strong as hits
# Vif TR-FRET: inhibitors of Vif binding to APOBEC3G peptide, primary screen, biochemical, TR-FRET, GST-Vif 1-94, biotin-A3G peptide, dose response retest (AID 1117319). one-dose inhibition, %; IC50 in µM for titrated hits. 260,000 compounds, 0.57% hits. Virion infectivity factor (Human immunodeficiency virus type 1 group M subtype B (isolate …. TR-FRET GST-Vif / biotin-A3G peptide binding; higher % means a stronger effect; test concentration not given here; strong numbers were not always called active;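 active = above the screen mean plus three standard deviations and confirmed in dose response; inconclusive = results disagree or hit not tested in dose response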;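 also: Vif residues 1-94 fused to GST binding biotinylated APOBEC3G peptide 110-148; 0% = full assay without inhibitor and 100% = GST in place of GST-Vif; retest series ran down from 100 µM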
# ALR inh: inhibitors of human ALR sulfhydryl oxidase, primary screen, biochemical, H2O2 detection, HRP-luminol luminescence, single point; 290,000 compounds, 3.8% hits; purified ALR, DTT oxidation; AID 485317, 2010; inhibition, % (concentration not given with the values);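 active = mean and each replicate at 75% or more; inconclusive = only one of the two met; inactive = neither met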;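 also: stock transfer was 7.5 nL into about 7.5 µL; 0% = neutral wells and 100% = wells with inactivated enzyme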
# Target sequence (P55789 whole entry, looked up): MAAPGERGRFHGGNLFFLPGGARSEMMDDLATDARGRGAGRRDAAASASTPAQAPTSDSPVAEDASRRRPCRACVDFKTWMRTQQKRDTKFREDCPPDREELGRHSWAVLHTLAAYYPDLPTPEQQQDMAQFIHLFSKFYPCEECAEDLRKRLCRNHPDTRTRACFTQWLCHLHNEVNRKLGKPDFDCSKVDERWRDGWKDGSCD
# E coli growth: E. coli growth inhibition, primary screen, OD600 | OD600 absorbance (concentration not given with the values) | 330,000 compounds, 0.21% hits | Escherichia coli growth, 23 h; hits give low values;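 active = OD600 absorbance below the run mean of sample wells minus 3.6 SD, in any replicate, cut at about 0.56 in these data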;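 also: stock transfer was 300 nL into about 60 µL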
# HNF4A DNA FP: change in binding of human HNF4A to DNA, primary screen, biochemical, fluorescence polarization, FITC-DNA | 360,000 compounds, 0.3% hits | Hepatocyte nuclear factor 4-alpha (Homo sapiens), P41235 | activity change, % at 10 µM | 1 h; in the data active = activity change above about 30%, passing the limit was not always enough;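 also: controls were the assay level and a saturating level of protein; the project sought stronger binding though the title names inhibitors; some compounds called inactive have numbers as strong as hits; positive values seem to mean higher polarization but the record does not say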
# Target sequence (P41235 whole entry, looked up): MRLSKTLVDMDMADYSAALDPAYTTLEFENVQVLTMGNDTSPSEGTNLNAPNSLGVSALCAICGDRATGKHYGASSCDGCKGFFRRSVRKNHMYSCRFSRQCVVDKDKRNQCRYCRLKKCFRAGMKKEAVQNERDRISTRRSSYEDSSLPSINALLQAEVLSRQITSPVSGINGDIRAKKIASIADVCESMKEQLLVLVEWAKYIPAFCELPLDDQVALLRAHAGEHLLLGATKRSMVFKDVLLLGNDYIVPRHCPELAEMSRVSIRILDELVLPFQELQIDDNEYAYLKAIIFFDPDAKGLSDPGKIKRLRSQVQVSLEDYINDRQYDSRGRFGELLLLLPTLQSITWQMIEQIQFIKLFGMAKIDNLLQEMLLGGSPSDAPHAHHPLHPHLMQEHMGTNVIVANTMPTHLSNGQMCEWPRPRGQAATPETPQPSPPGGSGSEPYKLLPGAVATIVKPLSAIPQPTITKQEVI
# rRNA inh HTS OD600: recorded beside rRNA inh HTS, whose call it bears; OD600 change, %; measured here: OD600 growth;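 optical density of the mix in the first replicate; 0 = DMSO median and -100 = no signal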
# rRNA inh HTS RFP: also measured in rRNA inh HTS; calls as there; RFP signal change, %; measured here: RFP humanized mutant strains;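 first replicate; 0 = DMSO median and -100 = no signal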
# * marks the source's active call; other numbers are inactive results; i = inactive; ? = inconclusive; nt = not tested or not shown; & = joins results of further samples. This is a subset. The share of hits here may be higher or lower than overall.
# Values run as follows: FGF22 binding	Vif TR-FRET	AF4-AF9 inh	rRNA inh HTS	rRNA inh HTS OD600	ALR inh	rRNA inh HTS RFP	HNF4A DNA FP	E coli growth
1: C[C@@H]1COc2cc(N3CCC[C@@H]3CO)ccc2S(=O)(=O)N1
→ i	nt	0.0	21	6	nt	4.8	2.6	nt
2: Cc1nc(=O)c(-c2ccccc2)c(C)n1-c1ccc(S(N)(=O)=O)cc1
→ nt	-7%	nt	nt	nt	-14	nt	-1.8	0.68
3: Cc1noc(NC(=O)c2cccc(C(F)(F)F)c2)c1Cl
→ i	-9%	-3.0	-48*	-38*	-7	-3.6*	-0.7	0.59
4: CCCC(=O)Nc1ccc2c(c1)OC[C@@H](C)N(C(=O)C1CCCC1)C[C@@H](C)[C@H](OC)CN(C)C2=O
→ i	nt	-3.2	1	0	nt	-0.4	nt	nt
5: CN1CCN(c2ccc(Cl)cc2NC(=O)c2ccc([N+](=O)[O-])cc2)CC1
→ i	7%	8.0	8	6	1	0.6	-1.4	0.7
6: COc1cc(NC(=O)CCCNC(=O)Cn2cnc3sc4c(c3c2=O)CCCC4)cc(OC)c1OC
→ i	nt	2.0	0	-2	4	0.3	0.5	0.63
7: O=C(O)c1c(C(=O)O)c(-c2ccc(Cl)c(Cl)c2)n2c1CSC2
→ i	-7%	-2.6	10	12	97*	1.8	-2.3	0.68
8: CCC1(c2ccc(F)cc2)NC(=O)N(CC(=O)Nc2cccnc2Cl)C1=O (stereo not drawn)
→ i	nt	-4.7	3	12	-1	-3.6	1.4	0.68
9: CN(C)CCNC(=O)c1onc(CSc2ccncc2)c1C(=O)NCCN(C)C
→ i	nt	-0.6	4	3	-8	0.7	4.2	0.68
10: Cc1ccc(C(=O)N(NC2=NS(=O)(=O)c3ccccc32)S(=O)(=O)c2ccc(C)cc2)cc1
→ nt	-3%	nt	nt	nt	16	nt	-1.2	0.79
11: Cc1ccc(S(=O)(=O)N(C)c2cc(S(=O)(=O)N3CCC(C)CC3)c(C)cc2C)cc1
→ nt	2%&-8%	nt	nt	nt	-4	nt	-0.8	0.8
12: CCOC(=O)c1c(NC(=O)CN2C(=O)NC3(CCCCC3)C2=O)sc(C)c1-c1ccc(C)cc1
→ nt	1%	nt	nt	nt	0	nt	-3.5	0.73
13: COc1ccc(NC(=O)N(C)C[C@H]2OCCCC[C@H](C)Oc3ccc(NS(=O)(=O)c4ccccc4)cc3C(=O)N([C@H](C)CO)C[C@@H]2C)cc1
→ i	nt	2.0	-4	-7	nt	0.7	nt	nt
14: O=C(CCNC(=O)N1CC(=O)Nc2ccccc21)Nc1cccc(Cl)c1
→ i	nt	-1.1	1	-4	-25	-4.3	0.7	0.7
15: Cc1ccc(C(=O)NCCNS(=O)(=O)c2ccccc2)cn1
→ i	nt	-1.3	6	1	-3	2.3	2.0	0.7
16: CN(C)c1ccnc(Oc2ccccc2)c1C#N
→ nt	?	nt	nt	nt	nt	nt	2.0	0.69
17: CCOC(=O)c1c(-c2ccccc2)oc2ccc(OCC(=O)NNC(=O)CCCC(=O)O)cc12
→ i	-8%	-7.1	6	-5	2	5.4	2.6	0.68
18: COc1ccc(NC(=O)N(C)C[C@H]2OCCCC[C@@H](C)Oc3ccc(NC(=O)CCCN(C)C)cc3C(=O)N([C@@H](C)CO)C[C@@H]2C)cc1
→ i	nt	1.8	3	0	nt	-0.2	nt	nt
19: COC(=O)c1[nH]c(=O)c2ccccc2c1O
→ nt	1%	-1.7	nt	nt	98*	nt	0.7	0.77
20: CN1C(=O)c2cc(NC(=O)Cc3cccs3)ccc2OC[C@@H]2O[C@H](CC(=O)NCCc3ccncc3)CC[C@H]21
→ i	nt	3.4	6	17	nt	-1.9	nt	nt
21: CC(C)(C)S(=O)N1Cc2cc(C(=O)Nc3ccc(-c4ccccc4)cc3)nc(-c3cccc(-c4cccc(F)c4)c3)c2[C@@H]1CCO (stereo partly drawn)
→ i	nt	-1.7	7	15	nt	2.4	nt	nt
22: Cc1ccc(NC2CCCN(C(=O)c3cc4ncccn4n3)C2)cc1C (stereo not drawn)
→ i	nt	-6.9	10	15	83*	-0.9	3.2	0.67
23: COc1cccc(C(CNC(=O)c2ccc(Cl)c(S(=O)(=O)N3CCCC3)c2)N(C)C)c1 (stereo not drawn)
→ i	nt	3.1	2	-8	0	-0.3	2.7	0.69
24: CCCCNC(=O)CCCn1c(=O)c2ccccc2n(CC(=O)NCCC2=CCCCC2)c1=O
→ nt	2%&0%	nt	nt	nt	nt	nt	-1.0	0.75
25: O=C(NCCO)c1ccc(-c2cnc3cccnn23)cc1
→ i	nt	-6.3	3	8	nt	-7.6	3.6	nt
26: COc1ccc(NS(=O)(=O)c2cccc(C(=O)NCc3ccccc3CN3CCCC3)c2)cc1
→ i	-7%	-3.1	-7	-12	0	-1.6	-0.3	0.64
27: O=C(NNC(=O)C1CCCO1)c1ccc(Br)cc1 (stereo not drawn)
→ nt	nt	nt	nt	nt	2	nt	-1.4	0.66
28: CCOC(=O)C1(Cc2ccccc2C(F)(F)F)CCN(C(C)CCn2cccn2)CC1 (stereo not drawn)
→ i	4%	3.6	-6	-6	5	2.6	3.1	0.67
29: CN(C)CCN1C(=O)C2C(C(=O)Nc3cc(Cl)cc(Cl)c3)C3C=CC2(O3)C1C(=O)NC1CCCCC1 (stereo not drawn)
→ i	nt	0.1	7	6	-2	4.8	-1.9	0.64
30: CCN(CC)S(=O)(=O)c1ccc(C(=O)NCCCn2ccnc2)cc1
→ i	5%	-0.7	12	6	nt	-1.7	1.9	0.72
31: CCCCOc1ccc(Cc2n[nH]c(=S)n2N)cc1
→ nt	27%	nt	nt	nt	-16	nt	4.8	0.69
32: CCCCN(C(=O)c1cc2c(s1)CCCCC2)c1c(N)n(CC(C)C)c(=O)[nH]c1=O
→ i	5%	-21	-2	10	nt	0.4	4.2	0.58
33: CCn1c(SCC(=O)NCc2ccco2)nnc1C(C)C
→ nt	7%	nt	nt	nt	-12	nt	-1.6	0.73
34: O=C(Cc1ccccc1)NCC(=O)OCC(=O)c1cccs1
→ nt	1%	nt	nt	nt	-5	nt	-2.1	0.67
35: COc1ccc(/C=N/c2nc3ccccc3n2CCN2CCCCC2)cc1OC
→ i	2%	6.3	9	8	nt	2.8	0.0	nt
36: CS(=O)(=O)N1CCN(c2ccccc2NC(=O)c2ccc(Br)o2)CC1
→ i	11%	6.8	2	-3	-8	0.2	-0.6	0.66
37: Cc1ccc(C)c(S(=O)(=O)NCc2ccc(C(=O)N3CC(C)OC(C)C3)cc2)c1 (stereo not drawn)
→ nt	3%	nt	nt	nt	-4	nt	0.1	0.75
38: Cc1onc(-c2c(F)cccc2Cl)c1C(=O)NCc1ccccn1
→ nt	1%	nt	nt	nt	-6	nt	-2.2	0.7
39: O=C(Cn1c(-c2ccccc2)c[n+]2ccsc12)c1ccc(Br)cc1
→ i	0%	1.0	-13	-2	31	-0.6	9.6	0.63
40: C=C1C(=O)[C@]23C[C@H]1CC[C@H]2[C@]1(C)[C@@H](O)CC[C@@](C)(C(=O)O)[C@H]1C[C@@H]3O
→ i	nt	-3.9	11	4	nt	-1.9	3.7	nt
41: CCOc1ccc(NC(=O)CSc2nc3ccsc3c(=O)n2Cc2ccc(C(=O)O)cc2)cc1
→ nt	-5%	-6.3	7	-6	nt	-1.9	3.0	nt
42: C=CCn1c(COc2ccccc2)nnc1SCC(=O)N/N=C/c1ccc(C)cc1
→ nt	2%	nt	nt	nt	7	nt	0.3	nt
43: Cc1ccc(S(=O)(=O)Nc2ccc3c(c2)C(=O)N([C@@H](C)CO)C[C@@H](C)[C@@H](CN(C)S(=O)(=O)c2cccs2)OCCCC[C@@H](C)O3)cc1
→ i	nt	-2.8	-6	-3	nt	-1.3	nt	nt
44: C=CCn1c(SCC(=O)Nc2ccc(N3CCOCC3)cc2)nnc1-c1ccco1
→ i	nt	-0.3	nt	nt	10	nt	2.0	0.67
45: CC(=O)c1cccc(NC(=O)c2cc(Cl)sc2Cl)c1
→ i	nt	-6.9	-37	-48	-5	-4.8	-3.8	0.68
46: Cc1ccc(Sc2cnc3ccccc3n2)cc1
→ nt	-27%	nt	nt	nt	-1	nt	0.3	0.65
47: Cc1cc(O)c(C(=O)Nc2cccc(Cl)c2)c(=O)n1C
→ i	nt	-2.4	2	-1	-5	-3.3	1.9	0.69
48: O=C(O)CSC12CC3CC(C1)CC(C(=O)O)(C3)C2
→ nt	nt	nt	nt	nt	-2	nt	-0.5	0.72
49: Cc1cc(C(=O)NCC(=O)OC(C)C(=O)N2CCOCC2)ccc1[N+](=O)[O-] (stereo not drawn)
→ i	nt	-2.3	23	18	24	3.9	-1.2	0.67
50: COc1cc(SC)ccc1C(=O)NCCN1CCOCC1
→ i	32%	nt	5	6	-15	-0.4	2.6	0.65
51: CCN1C(=O)CC(Sc2ccccc2C(=O)O)C1=O (stereo not drawn)
→ nt	4%	nt	nt	nt	-7	nt	-2.1	0.72
52: Cc1cc(NN)nc(NS(=O)(=O)c2ccccc2)n1
→ i	nt	-2.4	0	4	-1	1.4	-2.9	0.7
53: COC(=O)C1=C(C)Nc2ncnn2C1c1ccc(C)o1 (stereo not drawn)
→ i	4%	-4.9	5	3	-4	0.2	-3.0	0.73
54: CN(C=O)c1ccc(CSc2ccccc2)cc1
→ i	-1%	-1.8	-29*	-15*	nt	-1.1*	3.9	0.61
55: Cc1cccc(OCC(=O)N/N=C/c2cccn2C)c1
→ i	2%	1.2	24	5	3	4.8	0.2	nt
56: COc1ccc(O)c(C=Nc2cc(NC(C)=O)c(Cl)cc2Cl)c1
→ i	nt	-0.8	nt	nt	nt	nt	0.9	0.69
57: NC(=O)COc1ccc(S(=O)(=O)N2CCCC2)cc1
→ i	-2%	3.7	-1	2	nt	-2.6	2.4	nt
58: CCOC(=O)C1(Cc2cccc(OC)c2)CCN(Cc2ccc(OC)c(OC)c2)CC1
→ i	nt	4.2	nt	nt	-1	nt	-2.0	0.67
59: COc1ccc(CCNC(=O)C2CCCN2C(=O)Nc2ccc(C)cc2)cc1OC (stereo not drawn)
→ i	nt	0.8	13	10	-5	-0.6	-2.5	0.64
60: CCc1cc(=O)oc2cc(OCC(=O)NCCCn3ccnc3)c(Cl)cc12
→ i	nt	1.5	-3	-1	-1	-0.8	14	0.64

# Later entries
# Values run as follows: FGF22 binding	Vif TR-FRET	AF4-AF9 inh	rRNA inh HTS	rRNA inh HTS OD600	ALR inh	rRNA inh HTS RFP	HNF4A DNA FP	E coli growth
61: Cc1ccccc1C(=O)NC1CCN(CC(=O)NCc2ccccc2)CC1
→ i	nt	-0.3	4	4	-2	-2.1	0.4	0.63
62: CN(C)/C=C1\C(=O)Nc2ccccc21
→ nt	3%	nt	nt	nt	99*	nt	1.4	0.71
63: CCOc1ccc(C(=O)Nc2ccc(Cl)cn2)cc1Cl
→ nt	2%	nt	nt	nt	0	nt	-1.3	0.7
64: CCNC(=O)NC(=O)C(C)OC(=O)CNS(=O)(=O)c1c(Cl)cc(Br)cc1Cl (stereo not drawn)
→ i	31%	-0.1	-3	1	nt	2.9	-6.7	0.7
65: COc1ccc(C(=O)/C(=C\c2ccco2)N2C=CC=CC2=C(C#N)C#N)cc1
→ nt	4%	nt	nt	nt	1	nt	-0.7	0.62
66: O=[N+]([O-])c1ccc([C@H](O)[C@H](CO)N=Cc2ccccc2O)cc1
→ nt	29%	nt	nt	nt	-9	nt	0.7	0.71

# Assay outcomes: PubChem BioAssay, several laboratories
